Screening data from PubChem.
ALR inh – inhibitors of human ALR sulfhydryl oxidase, primary screen, biochemical, H2O2 detection, HRP-luminol luminescence, single point | inhibition, % (concentration not given with the values) | 3.8% of 290,000 active | AID 485317, 2010 | FAD-linked sulfhydryl oxidase ALR (Homo sapiens), P55789 | purified ALR, DTT oxidation;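 active = mean and each replicate at 75% or more; inconclusive = only one of the two met; inactive = neither met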;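 also: stock transfer was 7.5 nL into about 7.5 µL; 0% = neutral wells and 100% = wells with inactivated enzyme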
Target sequence (P55789 whole entry, looked up): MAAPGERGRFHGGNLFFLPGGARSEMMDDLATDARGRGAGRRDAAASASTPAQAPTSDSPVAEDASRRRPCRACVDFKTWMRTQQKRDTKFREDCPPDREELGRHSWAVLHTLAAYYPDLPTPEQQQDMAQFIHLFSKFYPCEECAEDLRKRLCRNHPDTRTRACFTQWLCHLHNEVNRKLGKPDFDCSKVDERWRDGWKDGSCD
RanGTP-Imp inh – inhibitors of RanGTP-importin-beta interaction, primary screen, biochemical, FRET, CFP-Ran, YFP-importin-beta, homogeneous; cell-free CFP-Ran/YFP-importin-beta FRET ratio; 1.1% of 300,000 active; inhibition, % (no concentration beside the values); Ran GTPase (GTP-bound) - importin-beta complex; AID 2216, 2009;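 active = most replicates above 15%; inconclusive = exactly half above 15%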;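 also: 0% = DMSO wells and 100% = Ran loaded with GDP instead of GTP; wells of about 40 µL received 100 nL stock; the first replicate is given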
Vif TR-FRET – inhibitors of Vif binding to APOBEC3G peptide, primary screen, biochemical, TR-FRET, GST-Vif 1-94, biotin-A3G peptide, dose response retest (AID 1117319); Virion infectivity factor (Human immunodeficiency virus type 1 group M subtype B (isolate …; TR-FRET GST-Vif / biotin-A3G peptide binding; higher % means a stronger effect; test concentration not given here; strong numbers were not always called active; one-dose inhibition, %; IC50 in µM for titrated hits; 0.57% of 260,000 active;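 active = above the screen mean plus three standard deviations and confirmed in dose response; inconclusive = results disagree or hit not tested in dose response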;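 also: Vif residues 1-94 fused to GST binding biotinylated APOBEC3G peptide 110-148; 0% = full assay without inhibitor and 100% = GST in place of GST-Vif; retest series ran down from 100 µM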
HNF4A DNA FP – change in binding of human HNF4A to DNA, primary screen, biochemical, fluorescence polarization, FITC-DNA; Hepatocyte nuclear factor 4-alpha (Homo sapiens), P41235; 1 h; activity change, % at 10 µM; 0.3% of 360,000 active; in the data active = activity change above about 30%, passing the limit was not always enough;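 also: controls were the assay level and a saturating level of protein; the project sought stronger binding though the title names inhibitors; some compounds called inactive have numbers as strong as hits; positive values seem to mean higher polarization but the record does not say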
Target sequence (P41235 whole entry, looked up): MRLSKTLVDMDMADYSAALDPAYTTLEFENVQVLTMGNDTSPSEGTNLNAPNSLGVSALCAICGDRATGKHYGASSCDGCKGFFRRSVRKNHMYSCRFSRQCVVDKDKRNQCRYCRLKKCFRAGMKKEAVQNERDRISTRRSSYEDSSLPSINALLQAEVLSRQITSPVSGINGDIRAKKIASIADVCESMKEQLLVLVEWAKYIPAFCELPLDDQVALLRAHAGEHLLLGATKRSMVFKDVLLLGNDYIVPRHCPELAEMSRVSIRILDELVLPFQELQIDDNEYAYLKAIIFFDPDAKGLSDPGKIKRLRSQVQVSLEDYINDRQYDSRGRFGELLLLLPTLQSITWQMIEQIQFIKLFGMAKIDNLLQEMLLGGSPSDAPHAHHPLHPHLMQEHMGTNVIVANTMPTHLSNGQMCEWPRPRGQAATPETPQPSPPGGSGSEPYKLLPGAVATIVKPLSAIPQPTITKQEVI
Calb FLC – C. albicans growth inhibition with fluconazole, primary screen, CaCi-2 strain, Alamar Blue fluorescence. C. albicans CaCi-2 (fluconazole-resistant clinical isolate) + fluconazole, 48 h. growth inhibition, % (concentration not given with the values). 0.57% of 300,000 active;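 active = most replicates above 75%; inconclusive = exactly half above 75%; inactive = most below 75%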;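 also: all wells also contain fluconazole at 8 µg/ml as a sub-toxic cotreatment; 0% = median of DMSO wells and 100% = median of geldanamycin control wells; wells of about 8 µL received 7.5 nL stock; the first replicate is given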
B2AR ag – beta2AR agonists driving receptor internalization, primary screen, cell-based, FAP fluorogen, flow cytometry; Beta-2 adrenergic receptor (Homo sapiens), P07550; Am2.2-beta2AR cells; reference of the scale not given here; response, % (concentration not given with the values); 0.43% of 340,000 active; AID 504454, 2011;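 active = response above a set limit, near 3 SD of response in nonfluorescent compounds, cut at about 42% in these data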;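 also: stock transfer was 100 nL into about 11 µL; a reference agonist was the positive control; negative values mostly stem from fluorescent compounds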
Target sequence (P07550 whole entry, looked up): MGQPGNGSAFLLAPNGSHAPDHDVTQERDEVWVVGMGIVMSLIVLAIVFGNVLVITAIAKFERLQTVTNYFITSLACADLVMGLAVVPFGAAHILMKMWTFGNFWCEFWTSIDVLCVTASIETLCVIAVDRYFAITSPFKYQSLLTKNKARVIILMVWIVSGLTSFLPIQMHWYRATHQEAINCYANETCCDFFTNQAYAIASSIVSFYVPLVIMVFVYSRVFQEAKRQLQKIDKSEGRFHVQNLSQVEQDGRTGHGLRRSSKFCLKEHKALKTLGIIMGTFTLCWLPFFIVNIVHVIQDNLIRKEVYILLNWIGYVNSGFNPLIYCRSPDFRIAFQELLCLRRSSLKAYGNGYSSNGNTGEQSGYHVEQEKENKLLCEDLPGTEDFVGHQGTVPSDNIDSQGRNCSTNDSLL
LANA-H2A inh – blockers of LANA interaction with H2A/H2B – biochemical, FP readout, HTS, primary screen. cell-free LANA-H2A/H2B peptide, fluorescence polarization. inhibition, % (concentration not given with the values). 0.6% of 320,000 active. AID 2629, 2010; in the data active = inhibition mostly above about 10%, no sharp cut-off; inactive = mostly below about 6.7%;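 also: stock transfer was 7.5 nL into about 10 µL; 0% = median of vehicle wells and 100% = median of positive control wells; one replicate is shown; the record names a cut of 25% in any replicate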
* = called active by the depositor; ? = inconclusive; . = no result given.

SMILES | ALR inh | RanGTP-Imp inh | Vif TR-FRET | HNF4A DNA FP | Calb FLC | B2AR ag | LANA-H2A inh
Cc1ccc(C(=O)N(C)CC(=O)Nc2cccc(F)c2)cc1S(=O)(=O)N1CCCCC1 | -9 | -2.6 | 5% | -2.0 | 7 | 0 | 5.1
COCCN(C(=O)CSc1nc2ccc(C)cc2[nH]1)c1c(N)n(Cc2ccccc2)c(=O)[nH]c1=O | -2 | -1.2 | -3% | -0.4 | 10 | 13 | -4.0
COc1ccc(-c2noc(COc3ccc4ccccc4c3Br)n2)cc1OC | -2 | -3.0 | -3% | -2.5 | -7 | -7 | 2.2
CCc1ccc(CN(C(=O)c2cccs2)C2CCS(=O)(=O)C2)cc1 (configuration not stated) | -2 | 8.0 | . | 5.4 | 5 | -3 | 7.2
Cc1ccc(CN2CCNC(=O)C2CC(=O)NCc2csc(C(C)C)n2)cc1 (configuration not stated) | 1 | -0.1 | . | 1.4 | -13 | 11 | 0.2
CCOC(=O)c1sc(NC(=O)C(CC)Sc2nc3ccccc3[nH]2)nc1C (configuration not stated) | -8 | ? | 1% | 0.0 | -7 | 7 | 3.1
O=S(=O)(NCCCN1CCOCC1)c1ccc(Cl)cc1 | 8 | 1.6 | . | -1.1 | 4 | 1 | -1.5
COc1ccc(/C=N/OCC(=O)N=Nc2c(O)[nH]c3ccc(Br)cc23)cc1OC | -2 | -1.6 | -1% | -2.2 | ? | -16 | -2.2
Fc1ccc(Nc2ncnc3ccccc23)cc1 | -91 | 2.8 | . | 0.4 | 1 | 7 | 8.5
Cc1cc2ncn(C(=O)c3cc(-c4ccccc4)nc4ccccc34)c2cc1C | 2 | 3.2 | ? | 3.8 | 2 | -1 | -1.9
CCOc1ccc(-c2cc(C(=O)N/N=C/c3cccnc3)c3ccccc3n2)cc1 | -3 | -1.9 | 6% | 1.9 | 2 | 10 | -2.2
CC(C)CCNC(=O)Cn1c2c(c(-c3ccccc3Cl)cc1=O)CCC2 | . | 1.3 | 20µM* | 0.3 | 1 | 3 | 1.1
Cc1ccc(NC(=O)C(NC2CCCC2)c2ccccc2)cc1Cl (configuration not stated) | -3 | 1.5 | 21% | -1.9 | -29 | 0 | -3.3
COc1ccccc1CNC(=O)CSc1ccccc1 | -5 | -1.8 | . | 1.5 | -2 | -3 | -3.0
COc1ccc(OC)c2sc(N(CCN(C)C)C(=O)/C=C/c3cccs3)nc12 | -14 | -0.1 | . | 2.6 | -46 | 19 | 0.1
COc1ccc(CNC(=O)COC(=O)c2c(C)nn(-c3ccccc3)c2C)cc1OC | . | . | 6% | -1.5 | . | 0 | .
CN1CCc2nc(SCC(=O)Nc3ccc(OC(F)(F)F)cc3)c(C#N)c(-c3cccs3)c2C1 | 99* | -2.8 | ? | 7.3 | -3 | -20 | 2.8
O=C(NC(Cc1ccccc1)C(=O)NCCc1ccccn1)c1cccs1 (configuration not stated) | -22 | 3.9 | -1% | -1.2 | -5 | -7 | -5.0
C(=N\N1CCN(C2c3ccccc3-c3ccccc32)CC1)/c1cccnc1 | . | 0.6 | -3% | -1.4 | -4 | -2 | -1.1
COC(=O)[C@@]12CCCN1[C@H](c1ccc(-c3ccccc3)cc1)[C@@H]1C(=O)N(C)C(=O)[C@@H]12 | -5 | 3.8 | . | 1.0 | -13 | 3 | 3.4
Cc1cn(-c2ccc(Br)cc2)[nH]c1=O | 41 | 3.8 | ? | 3.3 | -50 | 7 | 0.5
Nc1ccc(S(=O)(=O)C(F)(F)F)cc1N | -2 | 4.6 | 2% | 2.8 | -13 | 5 | -2.4
CCOc1ccc(S(=O)(=O)Nc2cnc3ccccc3c2)cc1 | . | -0.9 | . | 0.5 | 9 | -9 | -0.7
CN(C)c1nc(SCc2ccc(Cl)cc2)nc2c1CCCC2 | 0 | 0.1 | -4% | 0.4 | -5 | -3 | -1.5
CCn1nnnc1SCC(=O)Nc1ccc(OCc2ccccc2)cc1 | -12 | . | 33% | -4.2 | . | 7 | -1.9
Cc1ccc(-c2nn(-c3ccccc3)cc2CN(Cc2ccccc2)C(=O)c2ccco2)o1 | 5 | -3.5 | 22% | 1.8 | 7 | 24 | 1.9
COc1ccccc1CNC(=O)COC(=O)CSc1ccc(Cl)cc1 | -4 | 3.7 | 8% | -2.8 | 11 | -7 | 1.0
CN(CC1CCCO1)S(=O)(=O)c1ccc(C(=O)Nc2nc(-c3ccccn3)cs2)cc1 (configuration not stated) | -1 | . | -5% | 2.2 | . | 5 | -0.3
CCCN1Cc2cccc(C(=O)N3CCN(c4cc(Cl)ccc4C)CC3)c2C1=O | 56 | ? | 2% | -2.2 | -4 | 4 | 2.6
CCOC(=O)C1CCN(C(=O)C2c3ccccc3C(=O)N(C)C2c2ccc(OC)cc2)CC1 (configuration not stated) | . | -3.6 | 1% | -6.8 | 0 | 2 | -8.5

Compound profiles, as listed above. Values in the order: ALR inh	RanGTP-Imp inh	Vif TR-FRET	HNF4A DNA FP	Calb FLC	B2AR ag	LANA-H2A inh
CCn1nnnc1SCC(=O)Nc1ccc(OCc2ccccc2)cc1 in the list: -12	.	33%	-4.2	.	7	-1.9
COc1ccccc1CNC(=O)COC(=O)CSc1ccc(Cl)cc1 in the list: -4	3.7	8%	-2.8	11	-7	1.0

(further entries)
SMILES | ALR inh | RanGTP-Imp inh | Vif TR-FRET | HNF4A DNA FP | Calb FLC | B2AR ag | LANA-H2A inh
Cc1ccc2nc(/C(C#N)=C/c3cn[nH]c3-c3ccc(F)cc3)[nH]c2c1 | -3 | 5.4 | 3% | 3.6 | 17 | -7 | -3.8
CCc1ccc(CN(C)CC(=O)Nc2ccc(S(=O)(=O)N3CCOCC3)cc2)cc1 | . | . | -12% | -0.3 | . | 3 | -3.5
CN(C(=O)CC1C(=O)NCCN1Cc1ccc2ccccc2c1)C1CCOCC1 (configuration not stated) | -38 | 6.0 | 10% | 6.4 | -4 | 1 | 1.6
COc1ccc(NC(=O)CCNC(=O)c2ccco2)cc1Cl | -19 | -1.5 | . | 0.2 | -1 | 1 | -0.5
Cc1ccsc1/C=N/NC(=S)NCc1ccccc1 | 25 | 0.7 | -5% | -3.0 | 32 | -4 | -5.4
COC1OC(COC(=O)CNC(=O)OC(C)(C)C)C(O)C(O)C1O (configuration not stated) | 4 | 4.8 | 5% | -0.6 | 8 | -71 | -4.7
Cc1ccc(C(=O)CCNc2ccccc2)o1 | 97* | 6.2 | 4% | -0.5 | -3 | -14 | -0.6
COc1cc(/C=C/C(=O)c2ccc(C)c([N+](=O)[O-])c2)cc(OC)c1O | -5 | -6.9 | . | -0.7 | 28 | 22 | -1.5
COc1cc(C)nc(Oc2ccc(OCc3ccccc3)nn2)n1 | . | 1.0 | 3% | -1.3 | 31 | 4 | -5.7
COc1ccc(NC(=O)COC(=O)C2=COCCO2)cc1OC | -28 | 1.1 | -6% | 3.6 | 13 | -4 | -3.7
Cc1cccc(NC(=O)CSCC(=O)Nc2ccc(S(=O)(=O)N3CCOCC3)cc2)c1 | 5 | -3.1 | -1% | -0.5 | -3 | 3 | -4.6
COc1cc(CN2CCN(c3cc(C)ccc3C)CC2)cc([N+](=O)[O-])c1O | 2 | -0.6 | . | . | 20 | . | -0.1
CCCS(=O)(=O)N1CCCC(C(=O)NCCCOC(C)C)C1 (configuration not stated) | -7 | 1.4 | 75% | -1.5 | 0 | 1 | 7.0
CS(=O)(=O)c1ccc(NC(=O)CN2C(=O)C3CCCCC3C2=O)cc1 (configuration not stated) | -9 | -3.4 | . | 6.7 | -3 | 0 | 0.4
O=C(N[C@@H](Cc1ccccc1)C(=O)O)c1cccnc1 | -2 | ? | -1% | -1.9 | -10 | -8 | 3.0
CCOc1ccc(C2=Nn3c(nnc3-c3ccc(OC)cc3)SC2)cc1 | -6 | 0.6 | 1% | 2.3 | 18 | 8 | 4.4
O=C(C=Cc1ccccc1)c1ccc([N+](=O)[O-])cc1 | . | . | 0% | 5.0 | . | -4 | .
COC(=O)CN(c1cccc(C(C)=O)c1)S(C)(=O)=O | 0 | ? | 5% | -1.2 | -11 | -7 | 4.6
CC1(C)C2CCC1(CS(=O)(=O)N1CCN(c3ccc(F)cc3)CC1)C(=O)C2 (configuration not stated) | 1 | 0.8 | . | -0.5 | 13 | -5 | 0.4
Cc1cccnc1NC(=O)CSc1nnc(COc2ccc(C(C)C)cc2)n1C | 12 | 5.1 | ? | 1.8 | -36 | 9 | 0.3

6 neighbouring entries out of the list so far, quoted:
SMILES | ALR inh | RanGTP-Imp inh | Vif TR-FRET | HNF4A DNA FP | Calb FLC | B2AR ag | LANA-H2A inh
O=C(N[C@@H](Cc1ccccc1)C(=O)O)c1cccnc1 | -2 | ? | -1% | -1.9 | -10 | -8 | 3.0
CCOc1ccc(C2=Nn3c(nnc3-c3ccc(OC)cc3)SC2)cc1 | -6 | 0.6 | 1% | 2.3 | 18 | 8 | 4.4
O=C(C=Cc1ccccc1)c1ccc([N+](=O)[O-])cc1 | . | . | 0% | 5.0 | . | -4 | .
COC(=O)CN(c1cccc(C(C)=O)c1)S(C)(=O)=O | 0 | ? | 5% | -1.2 | -11 | -7 | 4.6
CC1(C)C2CCC1(CS(=O)(=O)N1CCN(c3ccc(F)cc3)CC1)C(=O)C2 (configuration not stated) | 1 | 0.8 | . | -0.5 | 13 | -5 | 0.4
Cc1cccnc1NC(=O)CSc1nnc(COc2ccc(C(C)C)cc2)n1C | 12 | 5.1 | ? | 1.8 | -36 | 9 | 0.3

Other structures
SMILES | ALR inh | RanGTP-Imp inh | Vif TR-FRET | HNF4A DNA FP | Calb FLC | B2AR ag | LANA-H2A inh
Nc1nc2ccc(C(=O)NC3CCCCC3)cc2s1 | 9 | -1.4 | -4% | 0.7 | 3 | 2 | -6.3
COc1cccc(Nc2cc(N3CCOCC3)c3nonc3c2[N+](=O)[O-])c1 | -16 | -2.8 | 0% | -0.1 | -36 | 7 | 1.8
CN1C(=O)c2oc3ccccc3c(=O)c2C1c1ccccn1 (configuration not stated) | -13 | 4.5 | 10% | -1.6 | -3 | 4 | 3.3
C/C(Cc1ccccc1)=N\NC(=O)CCCCCC(=O)N/N=C(\C)Cc1ccccc1 | 3 | 6.9 | 7% | 6.4 | -1 | 1 | -1.8
O=C(NC(=S)Nc1ccccc1[N+](=O)[O-])c1ccccc1Cl | 11 | 0.1 | -2% | -4.4 | 1 | -3 | -1.9
O=C(CCCOc1ccccc1)Nc1nc2ccccc2[nH]1 | -2 | 3.9 | 11% | -1.8 | -6 | -6 | 1.4
COc1ccccc1NC(=O)CSC1=NCCN1 | 98* | . | -4% | -2.3 | . | 4 | 0.2
C=CCNc1nc(-c2ccc(Cl)cc2)cs1 | 1 | 7.6 | 0% | -1.8 | -10 | -2 | -2.3
CNc1nc(N)c(C(=O)C(C)(C)C)s1 | 99* | -0.2 | 1% | -0.2 | 12 | -8 | 7.9
CC1CN=C(c2ccccc2)O1 (configuration not stated) | . | . | -8% | 1.8 | . | 15 | .
CSc1cccc(NC(=O)CNC(=O)c2ccc3c(c2)OCO3)c1 | -11 | 0.8 | -3% | 1.0 | 5 | -3 | 0.2
CC1CC1c1ccc(/C=C(\C#N)C(=O)Nc2cc(Cl)ccc2Cl)o1 (configuration not stated) | -8 | 24* | . | 2.3 | 0 | 2 | 1.8
Cc1cc2c(nn1)CCc1c-2no[n+]1[O-] | -2 | -3.1 | -7% | -2.9 | 6 | -8 | -2.3
